Screening data (PubChem)
VDR inhibitor: vitamin D3 receptor (human) inhibition. hit rate 0.93% among 400,000. P11473. Potency, µM, without a hit: max response, negative = inhibition, usual class: inhibitors. VDR-SRC2-3 peptide fluorescence polarization, 2 h; active means well fitted inhibition curve with a large enough effect; further: series mostly up to about 120 µM
Target sequence (P11473 whole entry, looked up): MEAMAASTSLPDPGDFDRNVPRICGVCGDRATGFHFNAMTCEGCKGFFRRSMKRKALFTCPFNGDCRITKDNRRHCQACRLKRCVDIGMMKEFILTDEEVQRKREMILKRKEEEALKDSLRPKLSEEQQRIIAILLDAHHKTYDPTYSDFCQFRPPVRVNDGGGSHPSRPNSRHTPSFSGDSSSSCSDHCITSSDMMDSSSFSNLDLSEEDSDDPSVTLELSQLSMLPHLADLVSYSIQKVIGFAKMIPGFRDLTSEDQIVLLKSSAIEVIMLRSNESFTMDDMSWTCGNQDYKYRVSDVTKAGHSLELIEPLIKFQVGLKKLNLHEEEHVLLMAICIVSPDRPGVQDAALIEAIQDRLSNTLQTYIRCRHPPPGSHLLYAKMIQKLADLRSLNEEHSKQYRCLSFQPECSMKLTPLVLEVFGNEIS
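Fluorescence polarization assay of small-molecule disruption of VDR binding to coregulator peptide SRC2-3. Compounds and controls pin-transferred, then read after 2 h incubation at ambient room temperature.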
* hit, by the source's call; & = joins results of further samples; [ ] = dose if it differs, or a comment. On the % scale 0 is the no-effect control and ±100 the full control effect; potency means the concentration at half of the fitted maximal effect. The list is partial; count on the stated rates, not on these rows.

How did CC(=O)C1=C(O)C(CSCc2ccccc2)N(C)C1=O (stereo not drawn) do in these assays?
VDR inhibitor: -6.8%

How did O=C(Nc1ccccc1)c1cc(S(=O)(=O)Nc2cccnc2)ccc1Cl do in these assays?
VDR inhibitor: -20.2%

How did CCOC(=O)Cn1cc(C(=O)OC)c2ccccc21 do in these assays?
VDR inhibitor: 1.5%

What do the screens show for `CC(C)(C)n1nc2c(c1NC(=O)COc1ccc(F)cc1)CS(=O)(=O)C2`?
VDR inhibitor: 5.3%

How did CCOC(=O)c1ccccc1NC(=O)CSc1nnc(Cc2cccn2C)n1-c1ccc(C)cc1 do in these assays?
VDR inhibitor: -8.0%

How did Cc1ccc(NC(=O)C2CC2c2ccccc2)c([N+](=O)[O-])c1 (stereo not drawn) do in these assays?
VDR inhibitor: 11.3%

How did O=C(NC(c1ccccc1)c1ccccc1)c1ccc(=O)[nH]n1 do in these assays?
VDR inhibitor: -17.3%

What do the screens show for `COc1ccc(OCC(O)CN(CC(O)COc2ccc(OC)cc2)c2cccc(O)c2)cc1` (stereo not drawn)?
VDR inhibitor: -13.3%

How did Cc1ccccc1CN(c1ccc(C(=O)NCc2cccnc2)cc1)S(C)(=O)=O do in these assays?
VDR inhibitor: -3.1%

How did COc1ccc(CCNc2nc(N3CCOCC3)nc(N3CCOCC3)n2)cc1OC do in these assays?
VDR inhibitor: -2.5%

Results for CC(=O)c1ccc(NC(=O)Cn2c(-n3nc(C)cc3C)nc(C)cc2=O)cc1 ?
VDR inhibitor: 14.4%

How did O=C(NCCNC(=O)c1cnccn1)c1ccc(Cl)cc1 do in these assays?
VDR inhibitor: 6.3%

Results for Cc1c(Cl)cccc1NC(=O)CN1C(=O)COc2ccc(S(=O)(=O)N3CCOCC3)cc21 ?
VDR inhibitor: 4.3%

How did O=C(OCCN=C1NS(=O)(=O)c2ccccc21)c1ccco1 do in these assays?
VDR inhibitor: -5.4%

What do the screens show for `O=c1c2ccccc2nc2n1CCCCC2`?
VDR inhibitor: -12.9%

How did CC(=O)C1=C(C)N(CC2CC2)C(=O)N[C@H]1c1ccccc1 do in these assays?
VDR inhibitor: 2.6%&-24.6%

How did COc1ccc(CNCC(O)COc2ccc(C(C)(C)c3ccccc3)cc2)cc1 (stereo not drawn) do in these assays?
VDR inhibitor: 0.4%

How did CN(C)S(=O)(=O)c1ccc(NC(=O)CCNC(=O)c2ccc([N+](=O)[O-])cc2)cc1 do in these assays?
VDR inhibitor: 9.7%

How did COc1ccc(N2C(=O)CC(SCc3ccc(Cl)cc3)C2=O)cc1 (stereo not drawn) do in these assays?
VDR inhibitor: 14.5%

How did COc1ccc(C(=O)COC(=O)CNC(=O)c2cc(OC)cc(OC)c2)cc1 do in these assays?
VDR inhibitor: 0.7%

Results for NC(=O)Nc1ccc(C(=O)OCC(=O)c2c[nH]c3ccccc23)cc1 ?
VDR inhibitor: 71.6%[activator]

How did O=C(NC1CCCCC1)N(Cc1cc2cc3c(cc2[nH]c1=O)OCCO3)C1CCCCC1 do in these assays?
VDR inhibitor: 1.2%

What do the screens show for `CCCCOc1ccc(CSc2ncn[nH]2)cc1`?
VDR inhibitor: -1.4%

Results for CCCCN(CCCC)CC(O)CN(c1cc([N+](=O)[O-])ccc1OC)S(=O)(=O)c1ccccc1 (stereo not drawn) ?
VDR inhibitor: -4.5%

How did Cc1ccc(N2CC(C(=O)NCCS(=O)(=O)N3CCN(c4ccccc4)CC3)CC2=O)cc1C (stereo not drawn) do in these assays?
VDR inhibitor: -3.6%&6.8%

How did CCS(=O)(=O)N1CCC(C(=O)NCCCOC)CC1 do in these assays?
VDR inhibitor: -7.9%

What do the screens show for `CC(OC(=O)c1ccc2c(c1)S(=O)(=O)c1ccccc1C2=O)C(N)=O` (stereo not drawn)?
VDR inhibitor: -1.6%

What do the screens show for `CCCc1[nH]n(-c2nc3ccccc3s2)c(=O)c1C=NCC(C)C`?
VDR inhibitor: -8.6%

How did NC(=O)c1cc2nc(-c3ccco3)cc(C(F)(F)F)n2n1 do in these assays?
VDR inhibitor: 15.5%

Results for COc1ccc(NC(=S)NC(=O)CC(C)C)c(OC)c1 ?
VDR inhibitor: -19.8%

What do the screens show for `Cc1cc(SCC(=O)N(C)C2CCCCC2)nc2ccccc12`?
VDR inhibitor: -11.5%

What do the screens show for `Cc1ccc(Cl)cc1NC(=O)c1cnc(N2CCCCC2)c2ccccc12`?
VDR inhibitor: 8.8%

Results for Cn1nc(C(F)(F)F)c(/C=N/OCc2c(Cl)cccc2Cl)c1Cl ?
VDR inhibitor: 9.3%

How did CC(C)NC(=O)c1ccccc1S(=O)c1ccccc1C#N (stereo not drawn) do in these assays?
VDR inhibitor: -2.1%

Results for O=C(Cc1cccs1)N/N=C/c1ccccc1 ?
VDR inhibitor: 11.2%

How did CC1CCCC/C1=N/Nc1ccc([N+](=O)[O-])cc1[N+](=O)[O-] (stereo not drawn) do in these assays?
VDR inhibitor: -13.4%

How did COc1ccc(N2CCN(CCCn3c(=S)[nH]c4ccccc4c3=O)CC2)cc1 do in these assays?
VDR inhibitor: 5.6%

How did CN[C@@H]1[C@H](O[C@H]2[C@@H](O[C@@H]3[C@@H](O)[C@@H](O)[C@@H](N=C(N)N)[C@@H](O)[C@@H]3N=C(N)N)O[C@@H](C)[C@]2(O)CO)O[C@H](CO)[C@@H](O)[C@@H]1O do in these assays?
VDR inhibitor: 0.5%

How did CCOc1ccc(C(=O)NCC(c2ccco2)N2CCOCC2)cc1 (stereo not drawn) do in these assays?
VDR inhibitor: -10.5%

How did CC(=O)Nc1nonc1-c1nnc(SCc2ccccc2Cl)n1C do in these assays?
VDR inhibitor: 8.7%

Results for CCOc1ccc(C2c3c(-c4ccc(C)cc4)n[nH]c3C(=O)N2c2ccc(Cl)cc2)cc1 (stereo not drawn) ?
VDR inhibitor: -5.8%

Results for COc1ccccc1CN1CCC2(CC1)CCN(C(=O)c1cc(C(F)(F)F)cc(C(F)(F)F)c1)CC2 ?
VDR inhibitor: -1.3%

What do the screens show for `CCn1cc2nc(SCC(=O)Nc3cccc(Cl)c3C)n(Cc3ccc(Cl)cc3)c(=O)c2n1`?
VDR inhibitor: -19.8%

Results for Cc1cc(C)cc(Nc2sc(C(=O)c3ccccc3)c(N)c2S(=O)(=O)c2ccccc2)c1 ?
VDR inhibitor: 13.8%

What do the screens show for `C#CCOCCOCCOCCNc1nc(N2CCN(C(=O)[C@H](CCCCN)n3cc(CN)nn3)CC2)nc(N2CCN(C(=O)[C@H](CCC(=O)O)n3cc([C@@H](N)CCCCN)nn3)CC2)n1`?
VDR inhibitor: 1.5%

What do the screens show for `CCOC(=O)Cc1csc(NC(=O)c2sc3nc4ccc(CC)cc4cc3c2N)n1`?
VDR inhibitor: -8.8%

Results for Cc1cc2c(cc3c(=O)n(CC(=O)NCc4ccccc4Br)ncn32)s1 ?
VDR inhibitor: 1.7%

What do the screens show for `CC1CCN(S(=O)(=O)c2ccc(NC(=O)CSc3ncccc3C(=O)O)cc2)CC1`?
VDR inhibitor: 13.2%

How did NC(=O)c1nsc(C(=O)N(c2ccccc2)C(C(=O)NCC2CCCO2)c2cccs2)c1N (stereo not drawn) do in these assays?
VDR inhibitor: -13.7%

Results for O=C(NCC(c1ccco1)N1CCOCC1)c1ccc([N+](=O)[O-])cc1 (stereo not drawn) ?
VDR inhibitor: -15.2%

What do the screens show for `COc1ccc(/C=C/C(=O)NCC(=O)n2nc(C)cc2C)cc1`?
VDR inhibitor: -16.0%

What do the screens show for `COc1cc(CNC(=O)C2CCCCN2S(=O)(=O)c2ccc(F)cc2)cc(OC)c1OC` (stereo not drawn)?
VDR inhibitor: 11.4%

How did CCC(C(=O)OC)n1cnc2c(oc3ccccc32)c1=O (stereo not drawn) do in these assays?
VDR inhibitor: 1.3%

What do the screens show for `CN(C)c1ccc(/C=N/NC2=NS(=O)(=O)c3ccccc32)cc1`?
VDR inhibitor: 1.4%

Results for O=C(NCC(c1ccco1)N1CCCCC1)c1ccc2c(c1)S(=O)(=O)c1ccccc1C2=O (stereo not drawn) ?
VDR inhibitor: -3.3%

Results for CCCSc1ccc(C(=O)Nc2ccc(Cl)cc2)cn1 ?
VDR inhibitor: 25.1%

What do the screens show for `CCN(CC)S(=O)(=O)c1ccc(OC)c(NC(=O)Cn2cnc3c2c(=O)n(C)c(=O)n3C)c1`?
VDR inhibitor: 16.4%

Results for CC(C)(C)OC(=O)COc1cc(OCC(=O)OC(C)(C)C)c2c(=O)cc(-c3ccccc3)oc2c1 ?
VDR inhibitor: 12.8%

Results for CCOc1ccc(OCCOc2ccc(/C=C/C(=O)O)cc2OCC)cc1 ?
VDR inhibitor: -5.9%

How did CCC(C)NC(=O)Cn1c(-c2cccs2)cc2cc(Cl)ccc21 (stereo not drawn) do in these assays?
VDR inhibitor: 8.4%

Arranged by SMILES length (descending): part of the list above
What do the screens show for `CCN(CC)S(=O)(=O)c1ccc(OC)c(NC(=O)Cn2cnc3c2c(=O)n(C)c(=O)n3C)c1`?
VDR inhibitor: 16.4%

What do the screens show for `COc1cc(CNC(=O)C2CCCCN2S(=O)(=O)c2ccc(F)cc2)cc(OC)c1OC` (stereo not drawn)?
VDR inhibitor: 11.4%

What do the screens show for `CN(C)c1ccc(/C=N/NC2=NS(=O)(=O)c3ccccc32)cc1`?
VDR inhibitor: 1.4%

Results for CCOc1ccc(OCCOc2ccc(/C=C/C(=O)O)cc2OCC)cc1 ?
VDR inhibitor: -5.9%

At a glance, part of the list above.
What do the screens show for `COc1ccc(/C=C/C(=O)NCC(=O)n2nc(C)cc2C)cc1`?
VDR inhibitor: -16.0%

What do the screens show for `COc1cc(CNC(=O)C2CCCCN2S(=O)(=O)c2ccc(F)cc2)cc(OC)c1OC` (stereo not drawn)?
VDR inhibitor: 11.4%

How did CCC(C(=O)OC)n1cnc2c(oc3ccccc32)c1=O (stereo not drawn) do in these assays?
VDR inhibitor: 1.3%

Reprinted at random: five records from the list
Results for CCOc1ccc(OCCOc2ccc(/C=C/C(=O)O)cc2OCC)cc1 ?
VDR inhibitor: -5.9%

What do the screens show for `CN(C)c1ccc(/C=N/NC2=NS(=O)(=O)c3ccccc32)cc1`?
VDR inhibitor: 1.4%

Results for O=C(NCC(c1ccco1)N1CCCCC1)c1ccc2c(c1)S(=O)(=O)c1ccccc1C2=O (stereo not drawn) ?
VDR inhibitor: -3.3%

What do the screens show for `CCN(CC)S(=O)(=O)c1ccc(OC)c(NC(=O)Cn2cnc3c2c(=O)n(C)c(=O)n3C)c1`?
VDR inhibitor: 16.4%

Results for CC(C)(C)OC(=O)COc1cc(OCC(=O)OC(C)(C)C)c2c(=O)cc(-c3ccccc3)oc2c1 ?
VDR inhibitor: 12.8%

(next part)
What do the screens show for `Cc1ccc(C(=O)NCCN2C3=NC[C@H](C)N3C[C@H]2Cc2ccc(O)cc2)cc1Br`?
VDR inhibitor: -21.1%

What do the screens show for `CC1CN(C(=O)c2ccc(S(=O)(=O)Nc3ccccc3F)cc2)CC(C)O1` (stereo not drawn)?
VDR inhibitor: 5.8%

How did COCCCN1Cc2cccc(C(=O)O)c2C1=O do in these assays?
VDR inhibitor: -7.7%

What do the screens show for `CCN(CC)CCNc1nc(-c2ccccc2)nnc1C(F)(F)F`?
VDR inhibitor: 4.1%

How did COc1ccc(/C=C/C(=O)Nc2nc(C)c(C(=O)N(C)C)s2)cc1 do in these assays?
VDR inhibitor: -10.3%

Results for Cc1ccc(S(=O)(=O)NCc2c(-c3ccccc3)noc2C)cc1 ?
VDR inhibitor: -0.1%

Results for C=CCn1c(O)c(/C=C2\C=NN=C2c2ccccc2)sc1=S ?
VDR inhibitor: 4.7%

Results for Cc1ccc(NC(=O)COC(=O)C2=COCCO2)c([N+](=O)[O-])c1 ?
VDR inhibitor: -9.1%

Results for Cc1ccc2c(c1)nnn2C1CCN(S(C)(=O)=O)CC1 ?
VDR inhibitor: -0.2%

Results for CCOc1ccc(C(=O)N2CCCC2C(=O)O)cc1 (stereo not drawn) ?
VDR inhibitor: -5.9%

Results for CC(NC(=O)COc1ccc(N(C)S(=O)(=O)c2ccccc2)cc1)c1ccccc1 (stereo not drawn) ?
VDR inhibitor: -6.2%

How did COc1ccc(N2CCN(CC(=O)NC(=O)NC(C)(C)C)CC2)cc1 do in these assays?
VDR inhibitor: 5.0%

What do the screens show for `CCOc1ccc2nc(NC(=O)Nc3ccccc3)sc2c1`?
VDR inhibitor: 3.4%

How did CCCCNC(=O)c1ccc2c(c1)N(CC)C(=O)CS2 do in these assays?
VDR inhibitor: -13.1%

What do the screens show for `N#Cc1c(N)n(-c2cccc(O)c2)c2nc3ccccc3nc12`?
VDR inhibitor: 8.9%

How did CC(NC(=O)c1ccco1)c1ccc2c(c1)OCO2 (stereo not drawn) do in these assays?
VDR inhibitor: -17.6%

What do the screens show for `CC(CC1C(C#N)=C(N)OC2=C1C(=O)CCC2)c1ccccc1` (stereo not drawn)?
VDR inhibitor: 11.0%

What do the screens show for `Cc1cc(C(=O)NN=C2C3CC4CC(C3)CC2C4)c2ccccc2n1`?
VDR inhibitor: 8.6%

What do the screens show for `Cc1csc(NC(=O)c2ccc(-c3ccc(Cl)cc3Cl)o2)n1`?
VDR inhibitor: -1.7%

What do the screens show for `COC(=O)C(C)Oc1ccc2c3c(c(=O)oc2c1)CCCCC3` (stereo not drawn)?
VDR inhibitor: -7.6%

What do the screens show for `CCOc1ccc(N(CC(=O)Nc2cc(C)ccc2C)S(=O)(=O)c2c(C)[nH]c(=O)[nH]c2=O)cc1`?
VDR inhibitor: -5.7%&-19.8%

How did COc1ccc(Cc2nc3ccccc3n2CC(=O)N/N=C/c2ccc(C)cc2O)cc1OC do in these assays?
VDR inhibitor: -21.6%

How did COC(=O)c1cc(OC)c(OC)cc1NC(=O)c1ccc(Br)o1 do in these assays?
VDR inhibitor: -2.0%

How did O=C(N/N=C/c1c(O)n(-c2ccc(Cl)cn2)c(=O)c2ccccc12)C1CC1 do in these assays?
VDR inhibitor: -21.6%

Results for COc1cc(C(=O)NC(=S)Nc2ccccc2N2CCCC2)cc(OC)c1OC ?
VDR inhibitor: 2.6%

How did Cc1ccc(C)c(NC(=O)C2Cc3ccccc3CN2C(=O)OCc2ccccc2)c1 (stereo not drawn) do in these assays?
VDR inhibitor: 17.5%
